NPYLR7 agonist – agonists of mosquito NPYLR7 receptor, primary screen, cell-based, Aedes aegypti, calcium fluorescence, mosquito biting behavior. Aedes aegypti neuropeptide Y-like receptor 7 (NPYLR7). activation, % at 10 µM. HEK293T NPYLR7/Galpha15, GCaMP6s calcium fluorescence. hit rate 0.15% among 270,000. AID 1259423, 2018; in the data active = activation above about 40%;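 note: 0% = vehicle and 100% = reference agonist at the receptor; some compounds past the cut are filed as inactive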
NPYLR7 agonist max-min – second read-out of NPYLR7 agonist, no call of its own (marks repeat the call); activation, %; measured here: Max-Min RFU normalised activation; some inactives read as strong as hits;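 span of the calcium signal over five minutes; 0% = vehicle and 100% = native peptide agonist; compound fluorescence can raise it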
The depositor's hits bear a star; & = joins results of further samples. A portion of the library (hit frequency here may not be typical).

SMILES | NPYLR7 agonist | NPYLR7 agonist max-min
CCOC(=O)N1CCN(C2CCCN(C(=O)c3cc4ccccc4n3C)C2)CC1 (centres undefined) | 2&0 | -2&-2
CCCCCOC(=O)C1=C(C)NC2=C(C(=O)CCC2)C1c1cc(Cl)c(O)c(OC)c1 (centres undefined) | -2 | -7
Fc1ccccc1-c1nnc(SCc2cccc3ccccc23)o1 | 6 | 6
COc1ccc(CCN(C)C2CCCN(C(=O)c3cc(C)on3)C2)cc1OC (centres undefined) | 1 | 1
O=C(Nn1cnc2c(cnn2-c2ccccc2)c1=O)C1CC(=O)N(c2ccccc2)C1 (centres undefined) | 13 | 12
Cc1ccc2c(N)[nH]nc2n1 | -1&-3 | 3&0
Cc1cc(C)n(-c2cc(NCCNS(=O)(=O)c3ccc(C(F)(F)F)cc3)ncn2)n1 | -9 | -13
C=CCNc1nc(Cl)nc(Nc2ccc(OC)cc2OC)n1 | 10 | 8
CCSc1nc(NCC(C)C)c2cnn(CCNC(=O)c3cccs3)c2n1 | -1 | -2
Cc1c(C(=O)O)sc2ncnc(NCC3(CN4CCN(C)CC4)CC3)c12 | 0 | -4
C=CCN1C(=O)NC(c2ccc(Cl)cc2)C(C(=O)OC)=C1C (centres undefined) | -2 | 24
Cc1cc(C)n(-c2ccc(N3CCN(C(=O)c4ccccc4Br)CC3)nn2)n1 | -3 | -7
CCOC(=O)C(c1cc(OC)ccc1OC)C1C=CC(NC(=O)c2c(Cl)cc(Cl)cc2Cl)C1 (centres undefined) | 4 | -1
COc1ccc(-c2ccc(/C=C3/NC(=S)NC3=O)o2)c([N+](=O)[O-])c1 | 7 | 13
N#Cc1ccccc1OCC(=O)NCc1ccccc1F | -8 | -10
C[C@]1(C#N)C[C@H](c2ccccc2)N=C1c1ccccc1 | 3 | 1
CC1CC(C)CN(Cc2nc3c(c(=O)n(C)c(=O)n3C)n2CC(=O)c2ccccc2)C1 (centres undefined) | -4 | -4
CCCS(=O)(=O)N1CCN=C1SCc1ccc(C(F)(F)F)cc1 | 4 | 9
O=C(CCc1ccsc1)NC1CC(=O)N(Cc2ccc(F)cc2)C1 (centres undefined) | 21 | 4
C#CCn1c(=NC(=O)CN2C(=O)CCC2=O)sc2cccc(OC)c21 | -3 | -3
CC1CC1C(=O)N1CCN(C(C)C(=O)N2CCOCC2)CC1 (centres undefined) | 0 | -1
COc1ccc(NC(=O)CCC2CCCN(Cc3cc(C)c(C)o3)C2)c(C)c1 (centres undefined) | 4 | -3
O=Cc1sc(=O)[nH]c1-[n+]1ccc2ccccc2c1 | -6 | -11
Cc1c(C(=O)NCc2ccncc2)c(CC(C)C)nn1-c1cccc(F)c1 | -2 | 9
Cc1csc(NC(=O)CCNS(=O)(=O)c2ccccc2)n1 | -1 | 2
O=C1CCC(=O)N1Cc1cccc(CN2C(=O)C3(CC(=O)N(Cc4ccccc4)C3=O)c3ccccc32)c1 (centres undefined) | 11 | 3
Cc1ccc(C)n1-c1ccc(C(=O)N2CCN(S(=O)(=O)c3ccc(F)cc3F)CC2)cc1 | 5 | 3
Cn1c(=O)[nH]c(=O)c2ccc(C(=O)O)nc21 | 2 | 2
CCCOC1CCCN(c2cc(CCN)nc(C)n2)C1 (centres undefined) | 11 | 8
Cc1ccc(C(=O)Nc2ccccc2C2SCC(=O)N2c2ccccc2F)cc1[N+](=O)[O-] (centres undefined) | 4 | 10

The last seven entries of the section before are carried over, then new ones follow:
SMILES | NPYLR7 agonist | NPYLR7 agonist max-min
Cc1c(C(=O)NCc2ccncc2)c(CC(C)C)nn1-c1cccc(F)c1 | -2 | 9
Cc1csc(NC(=O)CCNS(=O)(=O)c2ccccc2)n1 | -1 | 2
O=C1CCC(=O)N1Cc1cccc(CN2C(=O)C3(CC(=O)N(Cc4ccccc4)C3=O)c3ccccc32)c1 (centres undefined) | 11 | 3
Cc1ccc(C)n1-c1ccc(C(=O)N2CCN(S(=O)(=O)c3ccc(F)cc3F)CC2)cc1 | 5 | 3
Cn1c(=O)[nH]c(=O)c2ccc(C(=O)O)nc21 | 2 | 2
CCCOC1CCCN(c2cc(CCN)nc(C)n2)C1 (centres undefined) | 11 | 8
Cc1ccc(C(=O)Nc2ccccc2C2SCC(=O)N2c2ccccc2F)cc1[N+](=O)[O-] (centres undefined) | 4 | 10
CCc1c(C)nc(-c2cccc(F)c2)nc1N1CCN(C(=O)Nc2ccccc2Br)CC1 | -4 | 1
Cc1cccc(-c2nc(SCCN3CCCC3)c3c(=O)n(C)c(=O)n(C)c3n2)c1 | -4 | -6
COc1cc2c(cc1OC)CN(C1CCCN(C(=O)/C=C/c3cccs3)C1)CC2 (centres undefined) | -3 | -3
Cc1ccc(-n2ncc3c(-n4nc(C)cc4NC(=O)c4ccccc4F)ncnc32)c(C)c1 | 4 | 2
O=C(Nc1ccccc1)N(C1=NCCC1)c1ccccc1 | 2 | 0
CC1ON=C(c2ccccn2)N(CCOc2ccc(F)cc2)C1=O (centres undefined) | -3 | -4
COc1cccc(OCCCCOc2ccc3ccccc3c2)c1 | -1 | -4
Cc1cc2nc3ccc(=[N+](C)C)cc-3sc2cc1N | -11 | -4
CC(=O)N(Cc1cc(NC(=O)c2cccc(F)c2)ccc1N(C)C)C1CC1 | -4 | -1
CN(NC(=O)CC(=O)NN(C)C(=S)c1ccccc1)C(=S)c1ccccc1 | -3 | -9
O=c1c2ccccc2cnn1CCc1n[nH]c(=S)n1-c1cccnc1 | -9 | -13
C=CCCC(=O)N1CCC(n2c(=O)oc3ccc(C(C)(C)C)cc32)CC1 | -2 | 10
Cc1cc(C(=O)NNC(=O)c2ccccc2Br)c(C)n1C1CC1 | 6 | 6
CCOc1ccccc1NC(=O)NCCC(=O)N1CCC(C(=O)Nc2ccc(OC)cc2)CC1 | -12 | -8
COc1ccc(Cn2nccc2N)c(OC)c1 | 0 | 4

Profiles, quoted from the list.
`CC1ON=C(c2ccccn2)N(CCOc2ccc(F)cc2)C1=O` (centres undefined) is entered as NPYLR7 agonist = -3; NPYLR7 agonist max-min = -4
`Cc1cc2nc3ccc(=[N+](C)C)cc-3sc2cc1N` is entered as NPYLR7 agonist = -11; NPYLR7 agonist max-min = -4

The results go on.
SMILES | NPYLR7 agonist | NPYLR7 agonist max-min
NC(=O)c1ccsc1NC(=O)CSc1ncc(-c2ccccc2)n1C1CC1 | 5 | 2
CCOCCCN(CC(=O)N(CCc1ccc(OC)c(OC)c1)Cc1cccs1)C(=O)Nc1ccccc1Br | -8 | -5
COC(=O)C1CCN(C(c2cccc(F)c2)C2Sc3nc(C)nn3C2=O)CC1 (centres undefined) | -2 | -3
O=C(Nc1ccc(Cl)c(Cl)c1)N1CCSC1c1ccco1 (centres undefined) | -4 | -10
CCOC(=O)[C@H]1C[C@]2(CCCCN(C)C2=O)N(C(=O)COC)[C@H]1c1ccccc1 | 2 | 9
CC(c1ccccc1)N(Cc1cc(NC(=O)c2ccccc2Cl)ccc1N(C)C)C(=O)c1ccco1 (centres undefined) | -1 | 6
Cc1ccc(-n2c(C)cc(/C=C/C(=O)NCC3CCS(=O)(=O)C3)c2C)cc1 (centres undefined) | 7 | 2
CCC(NC(=O)Cc1ccccc1)C1c2cc(OC)c(OC)cc2CCN1Cc1ccccc1 (centres undefined) | 7 | 14
CCC(C)(C)COC(=O)c1ccc(CS(C)(=O)=O)o1 | 4 | -3
Cc1ccccc1N1CCCN(Cc2nc(C3CC3)no2)CC1 | 4 | -1
COc1ccc2c(c1)CCc1cc(CCC(=O)NCCN3CCOCC3)n(CCc3cccc(F)c3)c1-2 | 26 | 11
CCOc1ccc(-c2ccc(=O)n(Cc3ccc(Br)cc3)n2)cc1 | 13 | 7
CC(C)=NOC(C)C(=O)NCCNc1ccccc1 (centres undefined) | -4 | -4
CCOC(=O)NCCS(=O)(=O)N1CCN(c2ccc(F)cc2)CC1 | -6 | -7
CN(Cc1ccccc1)c1cc(Oc2ccc(F)c(F)c2)ncn1 | -5 | 6
Cc1c(CC(C)C)nc(N)c(C#N)c1-c1ccccc1Cl | 0 | -4
O=C(Nc1c(Cl)cccc1Cl)N1CCC2(CC1)SCCN2C(=O)COc1ccccc1 | 21 | 32
COc1ccc2c(c1)C=C([C@@H]1C[C@H]3CN(CCc4ccccc4)C(=O)[C@]34CCCN14)CO2 | 9 | 5
N#CC(=Cc1c2ccccc2cc2ccccc12)c1nnc2n1CCCCC2 | -7 | -7
CN(Cc1ncc[nH]1)Cc1cn[nH]c1C1CCCCC1 | 2 | 1
Cc1ccc(N=P(c2ccncc2)(N2CCCC2)C(C)(C)C)c(C)c1 (centres undefined) | 6&3 | 4&4
CCOc1cc(-c2c(-c3ccccc3)ncn2Cc2c(C)n[nH]c2C)ccc1OC | -6 | -9
Cc1nc2ccc(NC(=O)CCn3cnc4sc(C)c(C)c4c3=O)cc2s1 | -2 | -5
COc1ccc(CNS(=O)(=O)c2ccc(C)cc2C)cc1OC | 28 | 14
CCc1ccc(OC(C)C(=O)Nc2ccccc2C(N)=O)cc1 (centres undefined) | 4 | 9
CC(=O)n1cc(C(C[N+](=O)[O-])SCc2ccccc2)c2ccccc21 (centres undefined) | 2 | 0
COC(=O)c1ccc(CN2CCN(c3cccc(F)c3)C(=O)C2C)cc1 (centres undefined) | 1 | 2
COc1ccc2cc(C3CN(CCn4cccn4)CCO3)ccc2c1 (centres undefined) | 5 | 3
CC1(C(=O)NCc2cccs2)CCN1CCc1ccccc1 (centres undefined) | 5 | 1
COc1cc(NC(=O)c2ccoc2C)ccc1N1CCCC1=O | 7 | 4
O=C(Nc1ccc(F)cc1)c1nn(-c2cccc(C(F)(F)F)c2)c(=O)n(Cc2ccc(F)cc2)c1=O | -3 | -2
C=CCNc1ccccc1C(=O)NC(C)Cc1ccncc1 (centres undefined) | -2 | 0
O=C(Nc1ccc(N2CCc3ccccc3C2)c(C(=O)NCC2CCCO2)c1)c1ccc2ccccc2c1 (centres undefined) | -4 | 3
COc1ccc(/C=C2/NC(=S)NC2=O)cc1[N+](=O)[O-] | -5 | -5
CCCc1c(C)nn(-c2ccc(C(=O)N[C@H]3CCCC[C@H]3C(=O)OCC)cc2)c1C | -7 | -7
CC(C)CC1NC(=O)N(Cc2ccc(C(N)=O)cc2)C1=O (centres undefined) | 0 | 0
CSC1CCCC1N(C)C(=O)C1(O)Cc2ccccc2C1 (centres undefined) | 0 | 1
CC1CCCCC1NC(=O)Cn1cnc2c(cnn2C)c1=O (centres undefined) | 4 | 9
Cc1onc(-c2ccccc2)c1C(=O)NNC(=O)c1ccc(Br)cc1 | 7 | 9
OCCC1CN(CC2CCCCC2)CCN1Cc1ccsc1 (centres undefined) | 10 | -2
CC(c1nc(Cc2ccccc2)no1)N1CCNCC1 (centres undefined) | -1 | -2
O=C(O)C1(Oc2ccc(F)cc2F)CCN(C/C=C/c2ccccc2)CC1 | 19 | 4
c1ccc(CCC2CN(Cc3ccoc3)CCO2)cc1 (centres undefined) | 9 | 4
CCOC(=O)c1c(NC(=O)C(C)(C)C)sc(C(=O)Nc2ccccc2)c1C | -7 | -11
N[C@H]1CN[C@H](C(=O)N2CC(N3CCCCC3)C2)C1 | 7 | 4
COc1cccc(Cn2cccc2CN(Cc2ccccc2)C(=O)CN(C(=O)c2ccc(F)cc2)C(C)C)c1 | 17 | 19
O=C(CCCCSc1nnc(Cc2ccccc2)n1-c1cccc(C(F)(F)F)c1)NC(c1ccccc1)c1ccccc1 | 15 | 20
CC1CN(Cc2nc3c(c(=O)n(C)c(=O)n3C)n2Cc2ccc(Cl)cc2Cl)CC(C)O1 (centres undefined) | 2 | 0
CN(Cc1nc2ccccc2c(=O)[nH]1)C(=O)CSCc1cccs1 | -2 | 0
COc1cccc(Cc2nsc(N3CCC(CNC(=O)c4ccc([N+](=O)[O-])cc4Cl)CC3)n2)c1 | 16 | 23
CCCc1nc(C2CN(C(=O)C3CCCCN3CCC)CCO2)n[nH]1 (centres undefined) | 5 | 3
CCNC(=O)N(CC(=O)N(CCc1c[nH]c2ccccc12)Cc1ccc(F)cc1)C1CC1 | 10 | 22
COCc1cc(N2CCOCC2)nc(SCc2ccc(C(=O)N3CCCC3)cc2)n1 | 7 | 8
C#CCOc1ccc(C(=O)Nc2ccc(C3CC3)nn2)cc1 | -3 | -6
Cc1ccccc1CNC(=O)CN1C(=O)NC(C)(c2ccc(F)cc2)C1=O (centres undefined) | 3 | -1
CCCc1c(C)nn(-c2ccc(C(=O)Nc3cccc(Cl)c3)cc2)c1C | 0 | -2
N=C(CC(O)COc1ccccc1-c1ccccc1)N1CCCCC1 (centres undefined) | -12 | -16
NC(=O)Cn1c(CO)cnc1SCc1cccc2ccccc12 | 1 | -2
CCN(C(=O)CCN1CC=CCC1)c1ccccc1C | 8 | 6

Of the compounds above, six have bromine.
SMILES | NPYLR7 agonist | NPYLR7 agonist max-min
Cc1cc(C)n(-c2ccc(N3CCN(C(=O)c4ccccc4Br)CC3)nn2)n1 | -3 | -7
CCc1c(C)nc(-c2cccc(F)c2)nc1N1CCN(C(=O)Nc2ccccc2Br)CC1 | -4 | 1
Cc1cc(C(=O)NNC(=O)c2ccccc2Br)c(C)n1C1CC1 | 6 | 6
CCOCCCN(CC(=O)N(CCc1ccc(OC)c(OC)c1)Cc1cccs1)C(=O)Nc1ccccc1Br | -8 | -5
CCOc1ccc(-c2ccc(=O)n(Cc3ccc(Br)cc3)n2)cc1 | 13 | 7
Cc1onc(-c2ccccc2)c1C(=O)NNC(=O)c1ccc(Br)cc1 | 7 | 9

Screening data from PubChem.
